Source: PubChem BioAssay
nsP2pro inh: CHIKV nsP2 protease inhibition, primary qHTS; 31,000 tested, 1.1% active; Potency, µM (highest dose often 24.9 µM), for the others: at the top dose activity change, negative = inhibition, hits mostly inhibitors; FRET peptide cleavage, nsP2pro, fluorescence 1 h; Q8JUX6; AID 1964107; active means well fitted inhibition curve with a large enough effect; inconclusive means small, poorly fitted or top-dose-only effect; inactive means no such curve, though single readings can be large or run the other way; also: nearly all actives have a fitted effect of over 60% in size; a reference inhibitor and vehicle were the controls
* hit, by the source's call; i = inactive; ? = inconclusive; & = joins results of further samples; [ ] = dose if it differs, or a comment. % is scaled to controls: 0 for no effect and ±100 for the full control effect; potency is read from the fitted curve at half-maximal effect. The list is partial; count on the stated rates, not on these rows.

molecule | nsP2pro inh
COC(=O)NC(C)C(=O)N1Cc2cnc(Cc3ccc(OC)cc3)nc2C1 (configuration not stated) | 1.5%
O=C(Nc1ccccc1OCc1cc(=O)n2ccccc2n1)Nc1ccccc1C(F)(F)F | -13.1%
COC(=O)c1ccc(O[C@@H]2O[C@H](CO)[C@@H](O)[C@H](O)[C@H]2O)c(OC)c1 | 68.6%[activator]
Cc1ccsc1-c1[nH]nc2ncc(-c3ccnn3C)nc12 | -2.0%[39.2 µM]
CC1=CC(=O)C(C(C)C)=CC1=O | -10.6%
Cc1cccc(N2CCN(C(=O)C3CCN(S(=O)(=O)c4c(C)noc4/C=C/c4ccccc4F)CC3)CC2C)c1 (configuration not stated) | -14.5%
Cc1ccc(OCCn2c(CCNC(=O)c3ccc(Cl)cc3)nc3ccccc32)cc1 | -9.2%
CCOc1ccc(NC(=O)c2cc(S(=O)(=O)N3CCc4ccccc43)ccc2F)cc1 | -6.1%
CC1(C)SCCN(S(=O)(=O)c2ccc(Oc3ccncc3)cc2)[C@H]1C(=O)NO | 0.2%
COc1ccc(-c2nnc3n2N=C(c2ccccc2OC)CS3)cc1OC | 4.9%
O=C(Nc1cncc(NC(=O)c2cccs2)c1)c1cccs1 | 34.4%[activator]
COc1ccc2c(CNC3CCC(C)CC3)c(C(=O)O)n(Cc3ccccc3)c2c1 (configuration not stated) | -14.6%
COc1cccc(NCc2nnc(C(=O)N3CCC[C@@H]3c3cccc(F)c3)n2-c2ccccc2)c1 | -3.9%
Cc1nn2c(C)c(C(=O)NCC(C)c3ccccc3)cnc2c1-c1ccccc1 (configuration not stated) | -12.5%
CC1(C)[C@H](Cc2cc(-c3ccccc3)on2)C[C@@H]1NCC1CC1 | i
Cc1c(NC(=O)c2ccc(OC(C)C)cc2)cccc1-c1nc2ncccc2o1 | -20.1%
OCC1=CC[C@@H]2C=CO[C@@H](O[C@@H]3O[C@H](CO)[C@@H](O)[C@H](O)[C@H]3O)[C@H]12 | -3.5%
COc1ccc(-c2nc3ccc(C(=O)NCc4ccc(C)cc4)cc3nc2-c2ccc(OC)cc2)cc1 | -34.8%
Cn1cc(-c2cnc(Nc3ccc(F)c(Cl)c3)c3c2CCO3)cn1 | 8.91µM*
CC1CCN(S(=O)(=O)c2ccc3c(ccn3CC(=O)NCc3ccc(N(C)C)cc3)c2)CC1 | -22.2%
COCCNC(=O)[C@H]1C[C@H](Oc2ccccc2)CN1Cc1ccncc1 | ?
Nc1nc(Cl)nc2c1ncn2C1OC(CO)C(O)C1F (configuration not stated) | 11.3%
Cc1cn(C[C@H](NC(=O)c2cccc(F)c2)C(=O)O)c(=O)[nH]c1=O | i
N#Cc1cccc(C(=O)NCc2nnc3ccc(-c4ccc(F)cc4)nn23)c1 | 3.6%
O=C(NCCC1=CCCCC1)c1ccc2c(c1)N(Cc1ccccc1F)C(=O)c1ccccc1S2=O (configuration not stated) | -5.5%
NC(=O)C1CCN(c2ncc(-c3cccc(N4CCCC4)c3)s2)CC1 | i
O=C(Nc1cccc2nn(-c3ccc(F)cc3)cc12)c1ccccn1 | -1.1%
CCCCCCCCCCCCCCCC(=O)OC[C@@H](NC(=O)C(Cl)Cl)[C@H](O)c1ccc([N+](=O)[O-])cc1 | -4.9%
O=C(CC1CCCC1)N1CC[C@@H]2COCCN(Cc3ccccc3)[C@@H]2C1 | -26.9%
CCN(CCCNC(=O)c1cc2c(Cl)nc3ccccc3c2s1)Cc1ccccc1 | 41.2%[activator]
COc1cccc(-c2cccc(C(=O)N3C[C@H](CO)C[C@H](CN(C)C)C3)c2)c1 | i
Cc1ccc2c(c1)c1c(n2CCc2ccc(C)nc2)CCN(C)C1 | 27.9%
Cc1cc(C)nc(NC(=S)N2CCN(c3ccc4cnccc4c3)CC2)c1 | -1.8%
COc1ccccc1NC(=O)C(C)Sc1nnc2ccc3ccccc3n12 (configuration not stated) | 72.9%[activator]
Cc1ccc(-n2nc(C)c3c(C(F)(F)F)cc(-c4cccnc4)nc32)cc1C | ?
CCc1ccc(NC(=O)C2CCCN(S(=O)(=O)c3ccc(F)cc3)C2)cc1 (configuration not stated) | -14.4%
Cc1cn2nc(C(=O)N3CCN(C(=O)c4ccco4)CC3)cc2c(N2CCCC2)n1 | i
Cc1ccc(OCCn2c(CCNC(=O)c3ccccc3N)nc3ccccc32)cc1 | 4.47µM*
O=C(OCC#CCSc1nnc(-c2cccc3ccccc23)o1)c1cnc[nH]1 | 0.7%
CCc1cccc(NC(=O)Cn2c(=O)n(CCC(=O)NCc3ccccc3Cl)c(=O)c3sccc32)c1 | -11.2%
Cc1[nH]c2ccc(Br)cc2c1CCNC(=O)c1cc2ccccc2oc1=O | -12.1%
CCOC(=O)C1CCN(C(=O)C(C)(C)NC(=O)Nc2cccc(C(=O)OC)c2)CC1 | i
COCC(=O)NC[C@H]1OC[C@@H](NC(C)C)[C@@H]1O | 2.5%[39.2 µM]
CCn1c2ccccc2c2cc(CN3CCN(Cc4cc(OC)c(O)c(OC)c4)CC3)ccc21 | 5.5%
CCC(C)C(=O)O[C@H]1C[C@H](O)C=C2C=C[C@H](C)[C@H](CC[C@@H](O)C[C@@H](O)CC(=O)O)C21 (some centres not stated) | -13.1%
CCOc1ccccc1NC(=O)C1CCCN(S(=O)(=O)c2cccs2)C1 (configuration not stated) | -19.6%
COC(=O)[C@]12CCCC(C)(C)C1CCc1cc(C(C)C)c(O)c(O)c12 (some centres not stated) | -5.3%
CCn1nc(C(=O)N2C[C@@H](CN3CCN(C)CC3)[C@@H](CO)C2)cc1C | 3.0%
CCOC(=O)c1ccc(NC(=O)CSc2nc3ccccc3c(=O)n2CCC(=O)NC2CCCCC2)cc1 | ?
NC(=O)C1CCN(c2nc(-c3cccc(F)c3)cs2)CC1 | 0.7%

Next structures follow:
molecule | nsP2pro inh
Brc1cccc(-c2nnn3c2nc(N2CCCCC2)c2ccccc23)c1 | -24.1%
Cc1ccc(CCCO)c(NCc2ccc3nc(NCCCN4CCOCC4)n(Cc4nc(C)ccc4O)c3c2)c1 | -3.7%&34.4%
CCC(C)(C)C(=O)N1CCC(N2C(=O)CCC2C(=O)NC(C)C)CC1 (configuration not stated) | 4.9%
Cc1ccc(-n2c(-c3ccco3)nc3c(cnn3-c3ccccc3C)c2=O)cc1 | -17.1%
Cc1ccc(CCNC(=O)c2ccc3c(c2)nc2n3CCOC2)cc1 | -2.5%
CCCCNc1nc(C)nc2c1nc(-c1ccccc1)n2CC1CCN(C)CC1 | -5.0%
COc1ccc(Nc2cc(C)c3cc(NC(=O)c4cc(OC)cc(OC)c4)ccc3n2)cc1 | -4.6%
Cc1nc(CNc2ncnc3ccc(-c4ccc5c(c4)OCO5)cc23)cs1 | 57.2%[activator]
CNC(C)C(=O)NC(C(=O)N1CCCC1C(=O)Nc1cccc2ncccc12)C(C)C (configuration not stated) | -11.0%
CSc1cccc(NC(=O)Nc2ccccc2OCc2cc(=O)n3cc(C)ccc3n2)c1 | -16.0%
COc1ccc(OCC(=O)NCCS(=O)(=O)N2CCN(c3cccc(Cl)c3)CC2)cc1 | -11.8%
NC(N)=NCCN1CCCCCCC1 | -0.6%[0.199 µM]
CCCCNc1nc(C)nc2c1nc(-c1ccccc1)n2CCCN1CCCCC1C (configuration not stated) | ?
CC(C)(C)c1ccc(S(=O)(=O)N2CCC(Oc3ccc(-n4cnnn4)cc3)CC2)cc1 | -15.1%
COc1ccccc1-c1nnc2n1N=C(c1c(OC)cccc1OC)CS2 | 2.0%
CC(C)(C)c1ccc(Oc2ccc(NC(=O)CCC(=O)OCC(=O)c3ccccc3)cc2)cc1 | -15.2%
O=C(c1cccc(Br)c1)N1CCC(N2CCCC2)CC1 | -8.9%
CCOc1ccc(-n2c(=O)c3c(C)c(C)sc3n(CC(=O)NCCc3ccccc3)c2=O)cc1 | -13.2%
COc1cc2c(=O)n(CCC(=O)NCC3CCCO3)c(=O)n(CC(=O)Nc3ccc(C)cc3C)c2cc1OC (configuration not stated) | -15.1%
COc1cccc([S+](=O)([O-])N2CCC3(C2)N=C(c2cccnc2)C(=O)N3)c1 (configuration not stated) | -24.4%
CC1(C)CCC2(C(=O)OC3OCC(O)C(O)C3O)CCC3(C)C(=CCC4C5(C)CC(O)C(OC6OC(COC7OCC(O)C(O)C7O)C(O)C(O)C6O)C(C)(C)C5CCC43C)C2C1 (configuration not stated) | 26.3%[5.1 µM]
Cc1c(C(=O)NCc2ccccc2)oc2ccc(S(=O)(=O)N3CCC(C)CC3)cc12 | -12.3%
CCCCc1ncc(/C=C(\Cc2cccs2)C(=O)O)n1Cc1ccc(C(=O)O)cc1 | 8.6%&-8.9%
O=C(NCC(c1cccnc1)N1CCc2ccccc21)c1ccccc1Br (configuration not stated) | -12.3%
CC1(C)C(=O)C(C)(C)c2cc(C(=O)Nc3ccc(C(=O)O)cc3)ccc21 | -3.9%

In the list so far, 2 have a CF3 group.
molecule | nsP2pro inh
O=C(Nc1ccccc1OCc1cc(=O)n2ccccc2n1)Nc1ccccc1C(F)(F)F | -13.1%
Cc1ccc(-n2nc(C)c3c(C(F)(F)F)cc(-c4cccnc4)nc32)cc1C | ?

Carrying on.
molecule | nsP2pro inh
Cc1nc(C(=O)NC2CC(c3cc(N4CCC(O)C4)ncn3)C2)cs1 (configuration not stated) | -1.7%
COc1ccccc1OCC(=O)NCC(c1ccc(Cl)cc1)N1CCCCC1 (configuration not stated) | -24.0%
CC(=O)SCC(CC(=O)c1ccc(C)cc1)C(=O)O (configuration not stated) | -1.7%
CCOc1ccc(N2CC(C)Cn3c2nc2c3c(=O)n(CC(=O)O)c(=O)n2C)cc1 (configuration not stated) | -22.2%
CC(C)CN(C[C@@H](OP(=O)(O)O)[C@H](Cc1ccccc1)NC(=O)O[C@H]1CCOC1)S(=O)(=O)c1ccc(N)cc1 | -18.6%
O=C(CNS(=O)(=O)c1cccs1)N1CCN(c2ccccc2F)CC1 | -18.7%
C[C@@H]1N[C@H]2N(C1=O)c1ccccc1[C@@]2(O)C[C@@H]1C(=O)N[C@@H](C)c2nc3ccccc3c(=O)n21 | -0.9%[10 µM]
Fc1ccc(N2CCN(c3nc4ccccc4c4nc(-c5cccnc5)nn34)CC2)cc1 | -2.8%
O=C(CCn1c(=O)c2sccc2n(Cc2ccc(F)cc2Cl)c1=O)NCc1ccc2c(c1)OCO2 | -12.6%
COc1cccc(N(CC(=O)N2CCC(C)CC2)S(=O)(=O)c2ccc(C)cc2)c1 | -39.9%
OCC1CN(c2ccncn2)CC12CCN(Cc1cc(F)c(F)c(F)c1)CC2 (configuration not stated) | i
CC(CCc1ccc(O)cc1)NCCc1ccc(O)c(O)c1 (configuration not stated) | -16.3%
CN1CCOc2c(C(=O)NCCc3cnc[nH]3)cc(-c3ccccc3F)cc21 | i
Cc1ccsc1CN(C)c1ncnc2ccc(-c3ccc4c(c3)OCO4)cc12 | 4.9%
CCOc1cc(C2c3c(oc4ccccc4c3=O)C(=O)N2c2ccccn2)ccc1O (configuration not stated) | -19.0%
CC1(C)CCC(C)(C)c2cc3c(cc21)Sc1ccccc1N=C3c1ccc(C(=O)O)cc1 | -9.8%
CN1CCCC(n2nc(Cc3ccc(Cl)cc3)c3ccccc3c2=O)CC1 (configuration not stated) | -1.7%
CC(C)=CCC1(CO)CCCN(Cc2csc(C)n2)C1 (configuration not stated) | i
O=S(=O)(NCC(c1ccco1)N1CCOCC1)c1cc(F)ccc1F (configuration not stated) | -29.3%
CN(C)c1nc(NC2CCC(NC(=O)c3ccc(F)c(F)c3)CC2)nc2ccccc12 (configuration not stated) | 20.5%
Cc1ccc(C)c(NC(=O)CN2C(=O)CSc3nc(C)cc(C)c32)c1 | -3.5%
O=C(Nc1c(C(=O)N2CCC(N3CCCCC3)CC2)oc2ccccc12)c1c(F)cccc1F | -21.7%
CC1CCC(NC(=O)c2ccc(CS(=O)(=O)c3cccc(C(F)(F)F)c3)o2)CC1 (configuration not stated) | -15.7%
Cc1cc(-c2ccc(C)c(S(=O)(=O)NCC3CCN(Cc4ccc(F)cc4)CC3)c2)on1 | 13.6%
CCc1nc2c(=O)n(CC(=O)N3CCN(c4cccc(C)c4C)CC3)nc(C)c2s1 | 1.1%
CC(=O)c1c(O)cc2cccc3c2c1CC(C)(O)O3 (configuration not stated) | 76.2%[activator]
Cn1nccc1C(=O)N1CCCCCNC(=O)[C@@H]2CCC[C@@H]21 | 2.0%
CN(C)c1ccc(C(=O)Nc2sc(Nc3ccccc3)nc2C(N)=O)cc1 | -12.2%
Cc1ccc(-c2cc(-c3ccccc3)c(C#N)c(SCC(O)CS(=O)(=O)Cc3ccccc3)n2)cc1 (configuration not stated) | -13.1%
CCC(C)(C)C1CCc2c(sc(NC(=O)c3ccc(Br)cc3)c2C#N)C1 (configuration not stated) | -5.5%
CC(=O)OC1CC(C(C)(C)O)OC2CCC3(C)OC4=C(C(=O)C=C5C(C)C(OC(C)=O)C6(C)C(C)OC546)C(O)C3C12C (configuration not stated) | 6.0%[10 µM]

4 entries from above, with each value named:
CCn1c2ccccc2c2cc(CN3CCN(Cc4cc(OC)c(O)c(OC)c4)CC3)ccc21
- nsP2pro inh: 5.5%
CCC(C)C(=O)O[C@H]1C[C@H](O)C=C2C=C[C@H](C)[C@H](CC[C@@H](O)C[C@@H](O)CC(=O)O)C21 (some centres not stated)
- nsP2pro inh: -13.1%
CCOc1ccccc1NC(=O)C1CCCN(S(=O)(=O)c2cccs2)C1 (configuration not stated)
- nsP2pro inh: -19.6%
COC(=O)[C@]12CCCC(C)(C)C1CCc1cc(C(C)C)c(O)c(O)c12 (some centres not stated)
- nsP2pro inh: -5.3%
